Compound activity (PubChem BioAssay)
PD-1 reversal = reversal of PD-1 mediated T-cell inhibition. 29,000 tested, under 10 active. primary human CD4 T cells, PD-L1 beads, CellTiter-Glo 96 h. activation, % (test concentration not listed);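 active = replicate mean of 50% or more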;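 also: 0% = median vehicle wells and 100% = positive control; 100 nL library stock added to about 50 µL; numbers are from one replicate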
MITF inhib = MITF inhibition | TRPM1 promoter luciferase, luminescence, 24 h | 37,000 compounds, 0.28% hits | AID 2240 | inhibition, % (test concentration not listed);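 active = most replicates at 85% or more, or half of them and the mean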;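 also: human melanocyte line stably carrying TRPM1 promoter luciferase reporter; 0% = vehicle wells and 100% = a positive control; the first replicate is given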
YB-1 expr inh = YB-1 expression inhibition; delta delta Cp (YB-1 minus CDIP) (test concentration not listed); U2OS, qRT-PCR YB-1 vs CDIP delta delta Cp, 16 h; active compounds read high; zero = DMSO, each unit about twofold; 30,000 compounds, 0.37% hits;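 active = delta delta Cp rounded down to an integer at or above 3, about 3 SD of DMSO wells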;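 also: higher means less YB-1 transcript or more CDIP transcript relative to DMSO; stock transfer was 100 nL into about 100 µL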
Hedgehog inh = blocks Sonic Hedgehog signaling; Shh-LIGHT2 Gli-luciferase reporter, 30 h; inhibition, % (concentration not given with the values); 22,000 compounds, 2.1% hits;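 active = replicate mean of 65% or more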;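 also: pathway switched on by Shh-conditioned medium diluted 1 in 25 in low serum; 100 nL library stock added to about 40 µL; 0% = median of neutral wells and 100% = positive control level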
* hit, by the source's call; . = not tested or not shown. A portion of the library (hit frequency here may not be typical).

SMILES | PD-1 reversal | MITF inhib | YB-1 expr inh | Hedgehog inh
CNC[C@H]1Oc2c(NS(=O)(=O)c3ccc(OC)cc3)cccc2C(=O)N([C@H](C)CO)C[C@H]1C | 0.2 | -1 | -0.66 | -3
C[C@@H]1CN([C@@H](C)CO)C(=O)Cc2cc(NC(=O)Cc3cn(C)c4ccccc34)ccc2O[C@@H]1CN(C)S(C)(=O)=O | 0.7 | 1 | 0.095 | -21
COc1ccc(C(=O)NCCc2nc3ccccc3[nH]2)cc1OC | -0.8 | -3 | . | .
O=C(CSCCO)Nc1cccc2ccccc12 | 2.3 | 9 | . | .
Cn1nnnc1SCC(=O)Nc1cccc(C(=O)O)c1 | -0.3 | -9 | . | .
C[C@H]1CN([C@@H](C)CO)C(=O)c2cc(NS(=O)(=O)c3ccc(F)cc3)ccc2O[C@H]1CN(C)Cc1ccc(C(F)(F)F)cc1 | -8.2 | 7 | 0.28 | .
CC(C)NC(=O)N(C)C[C@@H]1Oc2ccc(NC(=O)Nc3ccccc3)cc2C(=O)N([C@H](C)CO)C[C@@H]1C | -1.3 | -11 | 0.22 | .
Cc1noc(C)c1NC(=O)N(C)C[C@H]1Oc2c(NS(=O)(=O)c3ccccc3)cccc2C(=O)N([C@H](C)CO)C[C@H]1C | 1.6 | 5 | -0.31 | -8
CCCCCC(O)/C=C/C=C\CCCCCCCC(=O)O (centres undefined) | . | . | 0.79 | -20
CC(C)NC(=O)Nc1ccc2c(c1)C(=O)N([C@H](C)CO)C[C@H](C)[C@@H](CN(C)C(=O)CCC(F)(F)F)OCCCC[C@@H](C)O2 | . | -12 | -0.48 | -15
C[C@H](CO)N1C[C@H](C)[C@H](CN(C)Cc2ccc(-c3ccccc3)cc2)Oc2ccc(NS(C)(=O)=O)cc2C1=O | -1.2 | 1 | -0.93 | 21
Cn1c(SCC(=O)Nc2cccc3ccccc23)nnc1-c1cccs1 | -5.0 | -8 | . | .
COc1ccc2c(C)c(CCC(=O)O)c(=O)oc2c1C | -0.2 | -35 | . | .
COc1ccc(CN(C)C[C@H]2Oc3c(NS(C)(=O)=O)cccc3C(=O)N([C@H](C)CO)C[C@@H]2C)cc1 | 0.9 | -7 | -0.015 | 1
CCOc1ccccc1Nc1nc(N)nc(CN(C)C2CCCCC2)n1 | 0.9 | -14 | . | .
CC(C)(C)NS(=O)(=O)c1ccc(NC(=O)CSc2nc3ccccc3[nH]2)cc1 | -0.2 | 16 | . | .
C[C@H](CO)N1C[C@H](C)[C@@H](CN(C)Cc2ccncc2)Oc2ccc(NC(=O)CCCCCC(=O)Nc3ccccc3N)cc2C1=O | 0.4 | 4 | 0.17 | .
C=C(C)[C@@H]1CC[C@]2(C(=O)O)CC[C@]3(C)[C@H](CCC4[C@@]5(C)CCC(=O)C(C)(C)C5C(O)C[C@]43C)C12 (some centres undefined) | -2.1 | 38 | -0.19 | -21
NC(=S)NN1C2CSC1CS2 | -23 | -1 | -0.11 | 37
C[C@H]1CN([C@@H](C)CO)C(=O)Cc2cc(NS(=O)(=O)c3cccs3)ccc2O[C@@H]1CN(C)C(=O)Nc1cccc2ccccc12 | . | 19 | -0.3 | -25
C[C@H]1CN([C@@H](C)CO)C(=O)c2cc(NS(C)(=O)=O)ccc2O[C@H]1CN(C)C | 2.8 | -7 | -0.38 | .
C[C@@H]1CN([C@@H](C)CO)C(=O)c2cc(NC(=O)C3CC3)ccc2O[C@@H]1CN(C)Cc1ccc(-c2ccccc2)cc1 | 0.4 | -1 | 0.11 | .
CC(C)NC(=O)Nc1ccc2c(c1)CC(=O)N([C@H](C)CO)C[C@@H](C)[C@@H](CN(C)S(=O)(=O)c1ccc(F)cc1)O2 | . | -3 | -0.085 | -3
CCOc1ccc(Nc2ncnc3c2ncn3-c2ccc(OCC)cc2)cc1 | 1.0 | 2 | . | .
C[C@H]1CN([C@@H](C)CO)C(=O)c2cccc(NC(=O)C3CCOCC3)c2O[C@H]1CN(C)C(=O)Nc1ccccc1 | 3.5 | 2 | -0.34 | -15

Quoted from the results shown (two entries):
SMILES | PD-1 reversal | MITF inhib | YB-1 expr inh | Hedgehog inh
CCOc1ccc(Nc2ncnc3c2ncn3-c2ccc(OCC)cc2)cc1 | 1.0 | 2 | . | .
C[C@H]1CN([C@@H](C)CO)C(=O)c2cccc(NC(=O)C3CCOCC3)c2O[C@H]1CN(C)C(=O)Nc1ccccc1 | 3.5 | 2 | -0.34 | -15

Returning to the listing, starting two compounds before the break.
SMILES | PD-1 reversal | MITF inhib | YB-1 expr inh | Hedgehog inh
CCOc1ccc(Nc2ncnc3c2ncn3-c2ccc(OCC)cc2)cc1 | 1.0 | 2 | . | .
C[C@H]1CN([C@@H](C)CO)C(=O)c2cccc(NC(=O)C3CCOCC3)c2O[C@H]1CN(C)C(=O)Nc1ccccc1 | 3.5 | 2 | -0.34 | -15
Cc1c(NC(=O)CN(c2ccc(Br)cc2)S(C)(=O)=O)cccc1[N+](=O)[O-] | -0.9 | -23 | . | .
COc1ccc(NC(=O)Nc2ccc3c(c2)C(=O)N([C@H](C)CO)C[C@H](C)[C@@H](CN(C)S(=O)(=O)c2ccccc2)O3)cc1 | 1.4 | -9 | 0.033 | 42
C[C@H]1CN([C@@H](C)CO)C(=O)c2cc(NC(=O)c3ccncc3)ccc2O[C@H]1CN(C)Cc1ccc(-c2ccccc2)cc1 | -1.6 | -7 | 0.42 | 26
Cc1noc(C)c1NC(=O)N(C)C[C@@H]1Oc2ccc(NC(=O)Nc3ccc(F)cc3)cc2C(=O)N([C@@H](C)CO)C[C@H]1C | 1.5 | 2 | 0.12 | 4
O=c1cc(-c2ccccc2)n(-c2ccccc2)cn1 | -5.4 | -19 | -0.38 | -70
CC(C)NS(=O)(=O)c1ccc(OCC(=O)O)cc1 | 2.0 | -5 | . | .
C[C@H]1CN([C@@H](C)CO)C(=O)Cc2cc(NC(=O)c3ccncc3)ccc2O[C@@H]1CN(C)Cc1ccc(-c2ccccc2)cc1 | 0.0 | -4 | 0.26 | 17
Cc1ccc(NC(=O)CC(c2ccccc2)c2ccccc2)cc1C | -1.0 | 8 | -0.03 | .
Cc1ccc(N(C(C)C(=O)Nc2cc(C)cc(C)c2)S(C)(=O)=O)cc1 (centres undefined) | -1.2 | 4 | . | .
COc1cccc(NC(=O)CSc2nc3ccccc3n2C)c1 | 1.1 | -46 | . | .
COc1cc(C(=O)OC[C@@]2(O)CO[C@H](OC3C(CO)OC(OC(C)/C=C/C4(O)C(C)CC(O)CC4(C)C)C(O)C3O)[C@@H]2O)cc(OC)c1O (some centres undefined) | -0.3 | -7 | 3.5* | -29
Cc1noc(C)c1NC(=O)N(C)C[C@H]1Oc2ccc(NS(=O)(=O)c3c(C)noc3C)cc2C(=O)N([C@@H](C)CO)C[C@@H]1C | 0.9 | 0 | 0.15 | -12
Cc1cc(OC(=O)c2c(C)cc(O)cc2O)cc(O)c1C(=O)O | . | -3 | 0.024 | -14
O=C(CC1NC2CCCCC2NC1=O)Nc1cccc(C(F)(F)F)c1 (centres undefined) | 0.5 | -9 | . | .
C[C@H](CO)N1C[C@H](C)[C@H](CN(C)Cc2ccc(C(=O)Nc3ccccc3N)cc2)Oc2ccc(NC(=O)CCN3CCOCC3)cc2CC1=O | -4.1 | 1 | 0.34 | .
CCOC(=O)c1sc2c(c1O)c(=O)n(-c1ccccc1)c(=S)n2-c1ccccc1 | 0.1 | 18 | -0.23 | 30
C[C@H]1CN([C@@H](C)CO)C(=O)c2cc(NS(C)(=O)=O)ccc2O[C@@H]1CN(C)Cc1ccc(Cl)c(Cl)c1 | 1.6 | -17 | -0.32 | .
Cc1ccc(N(C(C)C(=O)Nc2cc(Cl)cc(Cl)c2)S(C)(=O)=O)cc1 (centres undefined) | -5.4 | -3 | . | .
C[C@H]1CN([C@@H](C)CO)C(=O)Cc2cc(NC(=O)C3CC3)ccc2O[C@H]1CN(C)Cc1ccc(-c2ccccc2)cc1 | 0.0 | -5 | -0.074 | .
C=CCc1cccc2cc(C(=O)NCCN3CCOCC3)c(=O)oc12 | 0.8 | 1 | . | .
COc1ccc(S(=O)(=O)N(C)C[C@H]2Oc3ccc(NC(=O)Nc4ccc5c(c4)OCO5)cc3CC(=O)N([C@H](C)CO)C[C@H]2C)cc1 | 0.4 | 0 | -0.31 | -5
COc1ccc(-c2nc3ccc4ccccc4c3c3c2CCC3)cc1 | 0.5 | -74 | 0.38 | -106
C[C@@H]1CN([C@@H](C)CO)C(=O)c2cccc(NC(=O)c3ccncc3)c2O[C@H]1CN(C)C(=O)Nc1ccc(F)cc1 | 2.0 | 0 | 0.19 | -37
COc1ccc(NC(=O)N(C)C[C@H]2Oc3c(NS(=O)(=O)c4ccc(C)cc4)cccc3C(=O)N([C@H](C)CO)C[C@@H]2C)cc1 | 1.4 | 2 | 0.46 | -16
COc1ccc(C(=O)N(Cc2nc(-c3ccc(Cl)cc3)no2)C(C)C)cc1OC | 0.7 | -9 | . | .

An excerpt of these results, with two lines to a compound:
Value order – PD-1 reversal | MITF inhib | YB-1 expr inh | Hedgehog inh
Cc1noc(C)c1NC(=O)N(C)C[C@@H]1Oc2ccc(NC(=O)Nc3ccc(F)cc3)cc2C(=O)N([C@@H](C)CO)C[C@H]1C
→ 1.5 | 2 | 0.12 | 4
O=c1cc(-c2ccccc2)n(-c2ccccc2)cn1
→ -5.4 | -19 | -0.38 | -70

(continued)
SMILES | PD-1 reversal | MITF inhib | YB-1 expr inh | Hedgehog inh
Cc1oc(C(=O)O)cc1COc1ccc2c3c(c(=O)oc2c1)CCCC3 | -1.5 | -20 | 0.35 | 9
C[C@@H]1CN([C@H](C)CO)C(=O)Cc2cc(NC(=O)NC3CCCCC3)ccc2O[C@H]1CN(C)C(=O)Nc1ccc(C(F)(F)F)cc1 | -1.8 | -7 | -0.75 | .
C[C@]12CCC3c4ccc(OS(=O)(=O)O)cc4CCC3C1CC[C@H]2O (some centres undefined) | . | 6 | -0.15 | 6
COc1ccc([N+](=O)[O-])cc1NC(=O)CN(c1ccccc1F)S(C)(=O)=O | 2.0 | -30 | . | .
Cc1noc(C)c1NC(=O)N(C)C[C@@H]1Oc2ccc(NC(=O)CCCN(C)C)cc2C(=O)N([C@H](C)CO)C[C@H]1C | 0.6 | -6 | -0.095 | -5
C[C@@H]1CN([C@H](C)CO)C(=O)Cc2cc(N(C)C)ccc2O[C@@H]1CN(C)S(=O)(=O)c1ccc(Cl)cc1 | -0.1 | -10 | 0.22 | 25
C[C@@H]1CN([C@H](C)CO)C(=O)c2cc(NS(=O)(=O)c3ccc(Cl)cc3)ccc2O[C@@H]1CN(C)Cc1ccc(Oc2ccccc2)cc1 | -0.1 | 36 | -0.37 | 33
C[C@@H]1CN([C@@H](C)CO)C(=O)c2cccc(NC(=O)Nc3ccc(C(F)(F)F)cc3)c2O[C@H]1CN(C)C(=O)NC1CCCCC1 | -3.2 | 26 | 0.11 | -32
C[C@@H]1CN([C@@H](C)CO)C(=O)Cc2cc(NC(=O)Nc3ccc4c(c3)OCO4)ccc2O[C@@H]1CN(C)C(=O)Nc1cccc2ccccc12 | . | 5 | 0.12 | -18
C[C@@H]1CCCCO[C@@H](CN(C)C(=O)c2ccccc2)[C@@H](C)CN([C@H](C)CO)C(=O)c2cc(NS(=O)(=O)c3ccc(Cl)cc3)ccc2O1 | . | 5 | 0.062 | -4
CCn1c(SCC(=O)Nc2ccc(Br)c(C)c2C)nnc1-c1ccccc1C | 1.4 | 16 | . | .
O=c1cc(-c2ccc(O)cc2)oc2c(C3OCC(O)C(O)C3O)c(O)c(C3OC(CO)C(O)C(O)C3O)c(O)c12 (centres undefined) | -0.3 | 3 | 0.58 | -27
COc1ccc(OCC(=O)Nc2ccc(NC(=O)c3ccccc3Cl)c(OC)c2)cc1 | 0.9 | -20 | . | .
C[C@H]1CN([C@@H](C)CO)C(=O)c2cccc(NS(=O)(=O)c3ccc(Cl)cc3)c2O[C@H]1CN(C)Cc1ccc(C(F)(F)F)cc1 | -4.3 | 17 | 0.12 | 17
C[C@H](CO)N1C[C@H](C)[C@@H](CN(C)Cc2ccc(C(=O)Nc3ccccc3N)cc2)Oc2ccc(NS(=O)(=O)c3ccc(F)cc3)cc2C1=O | 1.8 | -13 | 0.17 | .
S=C(NCc1ccco1)NCC1CC(c2ccccc2)=NO1 (centres undefined) | 1.2 | -13 | 0.2 | .
COc1ccc(NC(=O)Nc2ccc3c(c2)CC(=O)N([C@H](C)CO)C[C@@H](C)[C@@H](CN(C)Cc2ccncc2)O3)cc1 | -1.7 | -5 | -0.093 | -32
C[C@@H]1CN([C@H](C)CO)C(=O)c2cccc(NC(=O)c3ccncc3)c2O[C@H]1CN(C)Cc1ccncc1 | 1.4 | -3 | 0.54 | -6
C[C@@H]1CN([C@@H](C)CO)C(=O)c2cccc(NS(C)(=O)=O)c2O[C@@H]1CN(C)C | . | 5 | 0.044 | -41
O=C1CCC(c2cccs2)=NN1CO | 1.4 | -2 | -0.41 | .
COc1ccc(-c2cc(=O)c3cc(OCC(=O)Nc4ccc(C)cc4C)ccc3o2)cc1 | -0.3 | -1 | . | .
C[C@H]1CN([C@@H](C)CO)C(=O)c2cc(NC(=O)Nc3ccc4c(c3)OCO4)ccc2O[C@H]1CN(C)CC1CCCCC1 | 1.2 | -2 | -0.052 | .
COc1ccc(-c2cc(C(F)(F)F)n3nc(C(=O)NCCCN4CCOCC4)cc3n2)cc1 | -0.4 | -31 | . | .
